Source: PubChem BioAssay (National Center for Advancing Translational Sciences (NCATS))
miR-21 reporter = raises the signal of a miR-21 reporter. HeLa miR-21 FLuc reporter, luciferase, 48 h. Potency, µM (highest dose often 38.3 µM), for inactives: at the top dose reporter change, positive = more light. 340,000 tested, under 10 active; active = well fitted rising curve with a large enough effect; inconclusive = small, poorly fitted or top-dose-only effect; inactive = no such curve, though single readings can be large or run the other way;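 note: % of control where 0% means no effect; miR-21 action dims this reporter so a rising signal means less miR-21 action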
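Using DMEM plus 10% FBS, HeLa miR-21-FLuc cells are incubated with test compounds (final up to about 40uM) for 48 hours; firefly luciferase signal is then imaged following reagent-mediated lysis.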
GLA inh pH 4.5 = alpha-galactosidase A (human) inhibition, pH 4.5; P06280; purified enzyme, 4-MU-alpha-Gal fluorescence, pH 4.5; activity change, negative = inhibition, % at 105 µM; 230,000 tested, under 10 active; inconclusive = small, poorly fitted or top-dose-only inhibition, or a rising curve; inactive = flat fitted curve, though single readings scatter; no compound was filed as active;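 note: 0% = full activity with enzyme and -100% = basal without enzyme; dose as in the result columns while the protocol names 77 µM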
Rango-impB inh = Rango-importin beta binding inhibition | Q14974 | Rango CFP/YFP FRET sensor + importin beta, 45 min | Potency, µM (doses to about 92.2 µM), for the others: at the top dose inhibition of complex formation | actives 0.031% (n = 340,000); active = rising FRET ratio curve, often small or poorly fitted; inconclusive = mostly compound fluorescence or quenching in the first reads; inactive = flat curves in all reads;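 note: potency is the fitted concentration of half-maximal effect; 0% = DMSO wells and 100% = buffer wells lacking importin beta; nearly all actives have a fitted effect of over 15% in size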
Target sequence (Q14974 whole entry, looked up): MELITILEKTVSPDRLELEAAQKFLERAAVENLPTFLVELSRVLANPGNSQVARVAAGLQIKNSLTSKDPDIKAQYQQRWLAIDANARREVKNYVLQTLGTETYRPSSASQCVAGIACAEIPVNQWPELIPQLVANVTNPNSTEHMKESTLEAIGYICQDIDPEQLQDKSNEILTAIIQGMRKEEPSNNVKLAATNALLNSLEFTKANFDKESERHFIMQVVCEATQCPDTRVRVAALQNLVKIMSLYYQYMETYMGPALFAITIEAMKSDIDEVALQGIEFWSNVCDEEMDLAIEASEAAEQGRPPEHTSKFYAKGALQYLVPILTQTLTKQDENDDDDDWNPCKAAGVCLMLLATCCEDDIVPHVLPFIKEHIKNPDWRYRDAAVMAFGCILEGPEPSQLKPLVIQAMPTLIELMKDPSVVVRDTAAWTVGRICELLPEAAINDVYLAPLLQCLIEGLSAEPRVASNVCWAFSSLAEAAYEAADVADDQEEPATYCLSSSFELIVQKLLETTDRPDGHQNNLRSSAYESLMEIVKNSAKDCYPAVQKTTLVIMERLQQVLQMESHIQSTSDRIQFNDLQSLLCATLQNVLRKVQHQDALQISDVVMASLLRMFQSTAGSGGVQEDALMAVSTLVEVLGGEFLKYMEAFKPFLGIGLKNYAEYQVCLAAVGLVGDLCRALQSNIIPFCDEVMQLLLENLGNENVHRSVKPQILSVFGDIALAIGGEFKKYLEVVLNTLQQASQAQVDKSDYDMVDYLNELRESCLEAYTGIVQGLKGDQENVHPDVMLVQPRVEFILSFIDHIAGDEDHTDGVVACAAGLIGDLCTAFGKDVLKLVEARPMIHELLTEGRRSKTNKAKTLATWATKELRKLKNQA
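Inhibition scored from the CFP 486 nm/YFP 530 nm FRET ratio 45 min after adding 0.125 microM importin beta to 50 nM Rango biosensor preincubated 5 min with compound (room temperature, PBS with DTT, Tween-20, BSA). No-importin wells as positive control.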
Rango release inh = prevents RanGTP from dissociating the Rango-importin beta complex. O95149+P62826. Biochemical FRET Rango-importin beta, RanGTP-induced dissociation. Potency, µM (doses to about 46.1 µM), without a hit: at the highest dose activity change, negative = inhibition. actives 0.071% (n = 340,000); active means falling FRET ratio curve, often poorly fitted, with flat reads before Ran was added; inconclusive means other falling curves, or compound fluorescence or quenching; inactive means flat or rising ratio curve;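 note: potency is the fitted concentration of half-maximal effect; % of control where 0% means no effect; nearly all actives have a fitted effect of over 45% in size; -100% = wells without RanGTP and RCC1; the record marks most hits as doubtful in a second field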
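Quantitative HTS using a FRET biosensor: 0.1 uM Rango, 0.25 uM importin beta, 0.6 uM Ran, 2 mM GTP, 0.2 uM RCC1 final, PBS with DTT, Tween-20 and BSA. Post-read taken 45 min after Ran addition.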
An asterisk follows results filed as active; ? = inconclusive; . = not tested or not shown. Not all compounds are listed; rates above refer to the full screens.

SMILES | miR-21 reporter | GLA inh pH 4.5 | Rango-impB inh | Rango release inh
COc1cc(C(=O)Nc2cccc3c2CCCC3)cc(OC)c1OC | 10% | . | 3.4% | 2%
O=[S@]1Oc2ccccc2-c2ccccc21 | . | . | -0.9% | 0%
Cc1ccc(NC(=O)CN(C)C(=O)CNC(=O)c2sc3ccccc3c2Cl)cc1 | . | . | -2.1% | -15%
COc1ccc(/C=N/n2cnc3c([nH]c4ccccc43)c2=O)cc1COc1ccccn1 | 0% | -10 | . | .
CCOc1cc([C@@H]2C[C@H]3CN(c4ccccc4)C(=O)[C@]34CCCN24)ccc1OC | 6% | -16 | -3.5% | -22%
COc1ccc(OC)c(NC(=O)CNC(=O)Cn2cnc3ccccc3c2=O)c1 | -3% | -12 | 6.0% | ?
S=C(Nc1cccc(Cl)c1Cl)NC1CCN(Cc2ccccc2)CC1 | 24% | . | -1.3% | -25%
COc1cc(NC(=O)c2ccccc2Cl)c(OC)cc1NC(=O)CN1CCCCC1 | 0% | -9 | 2.3% | -4%
CCC(CC)NC(=O)c1ccccc1Oc1ccccc1 | -3% | 6 | 3.6% | 11%
NS(=O)(=O)c1ccc(CNC(=O)c2ccc(NS(=O)(=O)c3cccs3)cc2)cc1 | . | . | 0.0% | 13%
CCCOc1ccc(/C=N/NC(=O)CSc2ccccn2)cc1OC | -39% | -8 | -2.2% | -3%
Cc1cc(Cl)ccc1Oc1nccc(N(C)C)c1C#N | -15% | -30 | 4.4% | -2%
CCCC(=O)Nc1nc2ccc3nc(C)sc3c2s1 | -21% | 2 | 0.2% | 2%
COc1ccc(CCNC(=O)CCS(=O)(=O)c2ccc3c(c2)NC(=O)CO3)cc1OC | -1% | . | 2.2% | 4%
CCc1ccc(Nc2nnc(SCC(=O)Nc3cccc(S(=O)(=O)NC4=NCCCCC4)c3)s2)cc1 | -3% | -24 | -0.1% | -11%
CCOc1ccc(Nc2nc(Cc3nnc(SCC(=O)NCC4CCCO4)n3C)cs2)cc1 (stereo not given) | -2% | 8 | -3.1% | -12%
CC1(C)Cc2c(ccc3ccccc23)/C(=C/C#N)N1 | -29% | 0 | 0.1% | 3%
Cc1ccsc1CNn1cnnc1SCc1ccc(Cl)cc1 | -6% | 0 | -0.8% | -10%
CSc1ccc(CN(C)C(C)C(=O)Nc2ccc(F)c(F)c2F)cc1 (stereo not given) | -1% | -6 | 3.0% | 1%
COc1cccc(-c2nn(C)c3sc(C(=O)N4CCN(c5ccccn5)CC4)cc23)c1 | -1% | -10 | -0.5% | -11%
CC(C)(C)C1=C(C#N)C(c2ccncc2)C(C#N)=C(N)O1 (stereo not given) | -15% | -2 | ? | -17%
c1ccc(-c2nc(-n3ccnc3)nc(-n3ccnc3)n2)cc1 | 16% | 6 | -3.1% | 1%
Cc1ccc(-n2c(SCC(=O)Nc3cc(S(=O)(=O)N4CCOCC4)ccc3Cl)nc3ccccc3c2=O)cc1 | -9% | 1 | -0.7% | -16%
Cn1c(=O)c2c(ncn2CC(=O)N2CCN(S(=O)(=O)c3ccccc3)CC2)n(C)c1=O | 2% | . | 1.8% | 3%
Cc1ccc(C(=O)Nc2ccccc2C(=O)O)cc1S(=O)(=O)Nc1ccccc1 | 14% | . | ? | -3%
CCOC(=O)C1=C(N)OC(CCl)=C(C#N)C1c1ccsc1 (stereo not given) | -3% | 13 | -3.8% | -1%
CCC(=O)NC(c1ccc(C)cc1)c1cc([N+](=O)[O-])c2cccnc2c1O (stereo not given) | -2% | -8 | 2.5% | -1%
CCOCCc1nnc(NC(=O)CCC2CCCCC2)s1 | 0% | . | -0.7% | -1%
O=C(NNc1nc2c(F)cccc2s1)c1ccc(F)cc1 | 8% | -14 | -0.3% | 8%
NS(=O)(=O)c1ccc(CNC(=O)c2cc(-c3cccnc3)nc3ccccc23)cc1 | 5% | . | 3.4% | -16%
CCOC(=O)c1nn(-c2ccc(C)c(C)c2)cc1O | -52% | 8 | 0.5% | 6%
COc1cc2oc(=O)cc(-c3ccc(-c4ccc(C(F)(F)F)cc4)cc3)c2c(OC)c1OC | . | -6 | -3.0% | -16%
Cc1cc(NC(=O)C(=O)NCCN2CCN(S(C)(=O)=O)CC2)ccc1Br | -5% | 6 | -1.4% | -1%
COc1ccc(-c2nc(C#N)c(NCCCN3CCOCC3)o2)cc1 | -4% | 9 | -3.8% | -5%
O=C(NC1CCN(Cc2ccccc2)CC1)c1cccc(Br)c1 | 1% | . | 0.5% | 1%
COCCNC(=O)C(=O)Nc1cc2c3c(c1)C(C)C(=O)N3CCC2 (stereo not given) | 1% | . | -2.9% | -5%
COCCn1c(-c2ccc(Cl)cc2)cnc1SCC(=O)NCc1cccs1 | 7% | 13 | -0.2% | -1%
COC(=O)[C@]1(Cc2ccccc2)N[C@H](CN(C)C(=O)COc2ccccc2)[C@@H]2C(=O)N(Cc3ccccc3)C(=O)[C@@H]21 | . | . | -3.1% | 10%
CCN(Cc1ccccc1)c1ccc(/C=C(\C#N)c2ccccn2)cc1 | -59% | -6 | ? | ?
C(=N\N(Cc1ccccc1)c1ccccc1)/c1ccco1 | -4% | 0 | 0.6% | 0%
CC(C)=C1C2CCC1C(C(=O)NCc1ccccc1)C2C(=O)O (stereo not given) | -5% | 0 | 0.6% | 0%
COCCCNC(=O)Cn1c(=O)n(CC(=O)NCCc2ccc(OC)c(OC)c2)c(=O)c2sccc21 | 0% | 7 | -1.0% | 9%
COc1cccc(C2=NOC(C(=O)NC(C)C)C2)c1 (stereo not given) | -9% | 2 | -0.7% | 10%
CC(Sc1n[nH]c(N)n1)C(=O)Nc1ccccc1-c1ccccc1 (stereo not given) | 0% | -2 | 0.1% | -9%
FC(F)(F)c1nc2nncn2c2c1CCCCC2 | -13% | 2 | -1.4% | -17%
COc1ccc(NC(=O)c2ccc(S(=O)(=O)N3CCCCC3)cc2)c(OC)c1 | 1% | . | 2.4% | -4%
N#CCCn1nc(-c2ccccc2)cc1-n1c(C(F)(F)F)nc2ccccc21 | -16% | -2 | -0.2% | -11%
O=C(CSc1nnc(-c2ccccc2)o1)NC1CC1 | . | . | 5.5% | 2%
O=C(CNS(=O)(=O)c1ccc(Br)s1)NCC1COc2ccccc2O1 (stereo not given) | 4% | -6 | -1.4% | 16%
COCCNS(=O)(=O)c1ccc(Cl)c(C(=O)NC2CCN(Cc3ccccc3)CC2)c1 | -4% | . | 4.8% | 5%
Cc1cc(=O)oc2c3c(cc(OCC(=O)NC4CC4)c12)OC(C)(C)CC3 | -1% | . | 7.6% | 0%
OC1(c2ccccc2Cl)NN=C2CCCCCN21 (stereo not given) | 5% | -2 | 0.3% | 22%
Cc1ccc(S(=O)(=O)/N=c2\scc(C)n2C)cc1 | . | . | 1.2% | 13%
CCOCC(=O)Nc1ccc(S(=O)(=O)NCC2CCCO2)cc1 (stereo not given) | 7% | . | -1.9% | 8%
CC(=O)N(CN1C(=O)c2ccccc2C1=O)c1ccccc1 | -2% | 9 | ? | 1%
O=C(O)c1cscn1 | 5% | -26 | 1.7% | 14%
C[C@@]12C(=O)N(c3cccc(F)c3)C(=O)N1[C@H](c1ccc(Cl)cc1)[C@@H]1C(=O)N(C3CCCCC3)C(=O)[C@@H]12 | . | . | -0.5% | -16%
CN(Cc1ccc(F)cc1)C(=O)c1cccc(S(=O)(=O)NCc2ccccc2)c1 | . | . | 5.1% | -4%
O=c1oc(-c2ccccc2)cc(Cl)c1Cl | ? | . | -0.2% | -1%
CCOc1ccc(CN2CCNC(=O)C2CC(=O)NCCC2=CCCCC2)cc1 (stereo not given) | -3% | 1 | ? | -1%

Among those listed so far, these contain a CF3 group.
SMILES | miR-21 reporter | GLA inh pH 4.5 | Rango-impB inh | Rango release inh
COc1cc2oc(=O)cc(-c3ccc(-c4ccc(C(F)(F)F)cc4)cc3)c2c(OC)c1OC | . | -6 | -3.0% | -16%
FC(F)(F)c1nc2nncn2c2c1CCCCC2 | -13% | 2 | -1.4% | -17%
N#CCCn1nc(-c2ccccc2)cc1-n1c(C(F)(F)F)nc2ccccc21 | -16% | -2 | -0.2% | -11%

(next part)
SMILES | miR-21 reporter | GLA inh pH 4.5 | Rango-impB inh | Rango release inh
COc1ccc(OC)c2sc(N3CCCCC3)nc12 | -56% | 7 | -0.4% | 2%
CC(C)CN(C(=O)CSc1nn(-c2ccc(Cl)cc2)c(=S)s1)C1CCS(=O)(=O)C1 (stereo not given) | 0% | 7 | -3.6% | 6%
Nc1ccc2nc(-c3ccccc3)c(-c3ccccc3)nc2c1 | 4% | . | ? | ?
CCC(=O)Nc1nc2ccccc2n1CCN(C)C | -4% | -3 | 0.7% | -2%
Cc1cc(N(C)NC(=S)Nc2ccccc2)nc(C)n1 | -1% | 0 | 0.3% | 8%
CN(Cc1cccc(F)c1)C(=O)CN1C(=O)NC2(CCc3ccccc32)C1=O (stereo not given) | . | . | ? | -28%
COc1cc(/C=N\NC(=O)C2C(=O)NCC2c2ccccc2)cc(OC)c1O (stereo not given) | -10% | -4 | -0.5% | 4%
O=C(N[C@@H]1c2ccccc2CC[C@@H]1OCc1ccccc1)c1ccc(C(F)(F)F)cc1 | . | . | 2.0% | 5%
CC1=C(C(=O)Nc2ccccn2)C(c2ccc(Br)cc2)NC(=S)N1 (stereo not given) | -35% | 2 | 2.1% | 18%
COC(=O)c1sc(S(=O)(=O)Oc2ccccc2NC(C)=O)c(C(=O)OC)c1C | . | . | -2.2% | -1%
CC(C)(C)OC(=O)NCCCC[C@H](NC(=O)c1[nH]cnc1C(=O)N[C@@H](Cc1ccccc1)C(=O)OCc1ccccc1)C(=O)OC(C)(C)C | . | . | -1.4% | -13%
Cc1nn(-c2ccccc2)c(C)c1-c1cc(C(=O)N/N=C/c2ccc(O)cc2)[nH]n1 | 20% | -14 | -0.3% | -2%
COCCNC(=O)C(=O)NCC1OCCCN1S(=O)(=O)c1cccs1 (stereo not given) | -1% | 7 | -2.1% | -9%
CCc1nnc2c(N(C)C)nc3ccccc3n12 | -9% | -2 | -3.2% | -1%
CC1c2cc3c(cc2CCN1S(=O)(=O)c1ccccc1)OCCCO3 (stereo not given) | 2% | . | 6.2% | -16%
CC(C)NC(=O)c1ccccc1-c1nc(-c2ccccc2Cl)no1 | -16% | -6 | -1.8% | 1%
COc1cc(NC(=O)CCCNC(=O)c2ccc(Cl)cc2)cc(OC)c1 | -5% | . | 0.4% | -2%
CCOC(=O)c1ccc(NC(=O)CSc2nc3c(c(=O)n2C)SC(C)C3)cc1 (stereo not given) | 9% | -5 | -2.0% | -3%
Cc1ccc(NC(=O)C2CC(=O)n3c(nc4ccccc43)N2)cc1C (stereo not given) | -2% | 6 | -0.3% | 5%
Cc1cc(C)c2cccc(N)c2n1 | 3% | 0 | 3.3% | 11%
O=C(NCCCN1CCCC1=O)c1ccc(S(=O)(=O)Nc2cccc(C(F)(F)F)c2)cc1 | . | . | 7.6% | -12%
CC(C)N(C(=O)N1CCN(c2ccnc3cc(Cl)ccc23)CC1)C(C)C | ? | . | 0.2% | -8%
CCCCc1nc2ccccc2c(NC(=O)CN2CCN(C)CC2)c1CCC | -12% | -2 | 4.0% | 1%
Cc1cc(C)cc(NC(=O)Nc2cc(S(=O)(=O)N(C)C)ccc2C)c1 | 12% | -12 | 1.5% | -14%
O=C(NNC(=O)c1cccnc1)c1ccncc1 | 0% | . | 0.5% | -4%
N#C[C@]1(S(=O)(=O)c2ccccc2)C[C@@H]2ON=C(c3cccc(Br)c3)[C@@H]2C1 | 17% | . | -4.2% | 17%
CC(C)(C)c1ccc(/C=C(\C#N)C(=O)NC2CC2)cc1 | . | . | -0.2% | 12%

A second format for part of the listing above:
compound	miR-21 reporter	GLA inh pH 4.5	Rango-impB inh	Rango release inh
Cc1cc(C)c2cccc(N)c2n1	3%	0	3.3%	11%
O=C(NCCCN1CCCC1=O)c1ccc(S(=O)(=O)Nc2cccc(C(F)(F)F)c2)cc1	.	.	7.6%	-12%
CC(C)N(C(=O)N1CCN(c2ccnc3cc(Cl)ccc23)CC1)C(C)C	?	.	0.2%	-8%
